Screening results (PubChem)
Cruzain inh noDet – qHTS Assay for Promiscuous and Specific Inhibitors of Cruzain (without detergent) | purified cruzain, Z-FR-AMC fluorescence, no detergent | Cruzipain (Trypanosoma cruzi), P25779 | Potency, µM, for the others: max response, negative = inhibition, hits mostly inhibitors | 200,000 tested, 2.3% active;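 further: plate controls were enzyme without inhibitor for no effect and buffer without enzyme for full effect; nearly all actives have a fitted effect of over 40% in size; top concentration of the series not given in the record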
Target sequence (P25779 123-467 limits assumed): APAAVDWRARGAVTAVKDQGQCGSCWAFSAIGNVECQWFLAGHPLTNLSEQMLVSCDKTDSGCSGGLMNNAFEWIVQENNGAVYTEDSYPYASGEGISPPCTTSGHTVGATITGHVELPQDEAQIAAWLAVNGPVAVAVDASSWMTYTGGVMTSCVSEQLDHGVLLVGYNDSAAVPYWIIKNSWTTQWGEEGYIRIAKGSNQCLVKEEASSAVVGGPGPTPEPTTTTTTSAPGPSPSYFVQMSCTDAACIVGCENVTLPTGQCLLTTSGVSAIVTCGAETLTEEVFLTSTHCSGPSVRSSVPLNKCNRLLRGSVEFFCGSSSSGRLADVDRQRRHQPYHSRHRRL
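Purified cruzain at 1.5 nM, pre-incubated 15 min with compound at room temperature in 100 mM sodium acetate pH 5.5, 5 mM DTT, 0.00005% Triton X-100. Reaction started with 2 uM Z-FR-AMC; AMC fluorescence increase over 60 s gives rate.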
RE007 growth inh – qHTS Assay for Inhibitors of the HIV-1 protein Vpr | 360,000 tested, 0.21% active | S. pombe RE007 Vpr strain, BacTiter-Glo ATP luminescence, 24 h; control for the full effect not named in the record | Potency, µM (doses to about 92.2 µM), without a hit: at the highest dose activity change, negative = less growth; active = well fitted falling curve with a large enough effect; inconclusive = small, poorly fitted or top-dose-only effect; inactive = no such curve, though single readings can be large or run the other way;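 further: on the % scale 0 is the no-effect control and ±100 the full control effect; nearly all actives have a fitted effect of over 50% in size; the assay follows cell death caused by Vpr and the record does not say whether a fall means rescue or toxicity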
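Fission yeast strain RE007, carrying one chromosomally integrated HIV-1 vpr copy, was seeded at OD 0.01 in PMG+AL medium with 23 nL pinned compound. After 24 h at 30 °C and 99% humidity, viability was read by BacTiter-Glo luminescence.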
2A StopGo – High Throughput Screening for Foot and Mouth Disease Virus Antivirals | human cells with a luciferase reporter of 2A StopGo recoding; control for the full effect not named in the record | Potency, µM (top dose mostly 57.9 µM), without a hit: top-dose signal change, negative = less light | 410,000 tested, 1.2% active; active = well fitted falling curve with a large enough effect; inconclusive = small, poorly fitted or top-dose-only effect; inactive = no such curve, though single readings can be large or run the other way; tested in HEK293T cells; further: on the % scale 0 is the no-effect control and ±100 the full control effect; nearly all actives have a fitted effect of over 45% in size; luciferase light after 4 h
Cruzain Triton – qHTS Assay for Promiscuous and Specific Inhibitors of Cruzain (with detergent) | purified cruzain, Z-FR-AMC fluorescence, 0.01% Triton | Potency, µM, inactives show max response, negative = inhibition, actives largely listed as inhibitors | 200,000 tested, 0.43% active;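 further: plate controls were neutral wells for no effect and buffer without enzyme for full effect; nearly all actives have a fitted effect of over 40% in size; top concentration of the series not given in the record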
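Steps: dispense cruzain (1.5 nM final) in acetate buffer pH 5.5 with DTT and 0.01% Triton X-100; pin-transfer compounds; incubate 15 min RT; add Z-FR-AMC (2 uM final); read fluorescence every 30 s, using the 60 s intensity change.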
SARS PLpro yeast – qHTS of Yeast-based Assay for SARS-CoV PLP; S. cerevisiae expressing SARS-CoV PLpro, growth rescue; control for the full effect not named in the record; Potency, µM (series often up to 32.9 µM), for the others: at the top dose activity, positive = growth rescue; 330,000 tested, 0.19% active; active means well fitted rising curve with a large enough effect; inconclusive means small, poorly fitted or top-dose-only effect; inactive means no such curve, though single readings can be large or run the other way; further: 0% is about no effect; nearly all actives have a fitted effect of over 55% in size; growth read by luminescence after 48 h
NS1 inh – qHTS Assay for Inhibitors of Influenza NS1 Protein Function; AID 2326, 2010; Potency, µM (series often up to 46.1 µM), inactives show top-dose activity, positive = more growth; 270,000 tested, 0.4% active; S. cerevisiae slowed by influenza A NS1, growth recovery by OD600; active means well fitted rising curve with a large enough effect; inconclusive means small, poorly fitted or top-dose-only effect; inactive means no such curve, though single readings can be large or run the other way; further: nearly all actives have a fitted effect of over 50% in size
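Compounds were scored for reversing the slow growth caused by influenza A NS1 in S. cerevisiae, measured by optical density at 600 nm. Assay medium contained 2% galactose at pH 6.0; NS1-free yeast of the same strain were the positive control.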
Marburg entry inh – qHTS for inhibitors of binding or entry into cells for Marburg Virus | Potency, µM (series often up to 37.8 µM), without a hit: at the top dose activity change, negative = inhibition, hits mostly inhibitors | AID 540276, 2011 | Marburg virus pseudotyped entry inhibition, cell reporter; control for the full effect not named in the record; about a third of the inactives were read at about 46 µM | 300,000 tested, 1.8% active; active = well fitted inhibition curve with a large enough effect; inconclusive = small, poorly fitted or top-dose-only effect, or effect the other way; inactive = flat fitted curve, though single readings scatter; tested in HEK293 cells; about a fifth of its hits are not listed in these tables; further: on the % scale 0 is the no-effect control and ±100 the full control effect; luciferase read-out
Lassa entry inh – qHTS for Inhibitors of binding or entry into cells for Lassa Virus | Lassa virus pseudotype entry inhibition, cell reporter; control for the full effect not named in the record | Potency, µM (series often up to 37.9 µM), for the others: at the top dose activity change, negative = inhibition, hits mostly inhibitors | 300,000 tested, 1.2% active | AID 540256, 2011; active means well fitted inhibition curve with a large enough effect; inconclusive means small, poorly fitted or top-dose-only effect, or effect the other way; inactive means flat fitted curve, though single readings scatter; tested in HEK293 cells; further: on the % scale 0 is the no-effect control and ±100 the full control effect; nearly all actives have a fitted effect of over 50% in size; luciferase read-out
An asterisk follows results filed as active; ? = inconclusive; . = no result given; & = joins results of further samples; [ ] = another dose, or the depositor's remark. Unless noted, the call rests on the fitted dose curve; in most records, active means well fitted curve in the direction sought with a large enough effect; inconclusive means small, poorly fitted or top-dose-only effect, or another doubt; inactive means no such curve, though single readings can be large; an effect the other way counts as inactive or inconclusive. Potency means the concentration at half of the fitted maximal effect.

nr	SMILES	Lassa entry inh	2A StopGo	SARS PLpro yeast	RE007 growth inh	Marburg entry inh	NS1 inh	Cruzain Triton	Cruzain inh noDet
1	Nc1ccc(C(=O)NN2C(=O)[C@H](Cl)C2c2ccc(Cl)cc2)cc1 (stereo not given in full)	11µM*	?	.	17%	8.9µM*	.	.	.
2	O=CN1CCN(C(C(=O)NC2CCCCC2)c2ccc(Cl)cc2)CC1 (stereo not given)	10%	-2%	.	-9%	-2%[46.1 µM]	.	.	.
3	COc1cccc(OCCn2cc(/C=N/NC(=O)c3ccncc3)c3ccccc32)c1	6%	?	8%	2%	?	0%	-11%	?
4	CC(C)(COC(=O)c1ccccc1)N1CC2CCC(C1)O2	4%[46.1 µM]	16%	.	2%	3%	.	.	.
5	Cc1ccc(NC(=S)c2nc3ccccc3[nH]2)cc1	?	?	-15%	-35%	?	-64%	-5.2%	-4%
6	Cc1ccc(Oc2nc3c(c(=O)n(Cc4ccccc4)c(=O)n3C)n2C)cc1C	?	14µM*	.	.	?	.	-6.2%	-8%
7	O=C(O)Cn1nnc(-c2ccc(OCc3cccc(C(F)(F)F)c3)cc2)n1	?	-8%	.	.	.	.	-13%	5%
8	CC(=O)N1CCC(N(CCN2CCOCC2)C(=S)Nc2cccc(C)c2)CC1	17%	-2%	20%	.	13%	-7%	-1.9%	-9%
9	CC(=O)Nc1ccc(Sc2ncccc2C(=O)Nc2ccc(OC(F)(F)F)cc2)cn1	-5%	1%	6%	0%	-1%	?	4.3%	4%
10	COc1ccccc1N1CCN(Cc2cc3c(cc2[N+](=O)[O-])OCO3)CC1	.	?	-5%	-9%	.	-3%	.	.
11	Cc1cccc(NCc2nc3ccccc3n2Cc2ccccc2)c1	7%	-15%	-24%	-9%	?	-98%	-3.4%	2%
12	COC(=O)c1cc2c(ccn2-c2ccc(F)cc2)n1C(C)C	0%	-15%	-24%	-7%	11%	-14%	-5.4%	3%
13	Cc1ccc(C(C(=O)NC(C)(C)C)N(C(=O)CCC(=O)Nc2ccccn2)c2ccccc2F)cc1 (stereo not given)	0%	9%	2%	2%	?	4%	.	.
14	CCOc1cccc(CNc2ccc(O)cc2)c1OCc1ccc(Cl)cc1Cl	?	?	-7%	?	?	-5%	1.0%	-3%
15	O=C(Cc1ccc(-c2ccccc2)cc1)Nc1ccccn1	?	36%[activator]	-3%	-19%	?	-31%	.	.
16	O=c1[nH]c2cc(Cl)c([N+](=O)[O-])nc2[nH]1	11%	-9%	-22%	-21%	7%	2%	-3.8%	10%
17	CN(Cc1ccccc1)C(=O)c1nc2ccccn2c1CN1CCCC1c1nccs1 (stereo not given)	17%[46.1 µM]	3%	-2%	4%	-1%[46.1 µM]	-3%	.	.
18	Cn1nnnc1SCc1cc(=O)[nH]c2ccccc12	-3%	6%	-2%	1%	-2%	4%	0.7%	-5%
19	Cc1ccc2[nH]c(C)c(CCNC(=O)c3cc4cc([N+](=O)[O-])ccc4oc3=O)c2c1	11%	-18%	-9%	5%	?	8%	-11%	?
20	CC(C)(C#N)Nn1cnnc1	6%	-18%	-16%	22%	3%	-2%	0.0%	-7%
21	O=c1c2ccccc2c(-c2ccc(F)cc2)nn1-c1ccc(C(F)(F)F)cc1	1%	-23%	-3%	-9%	-27%	-3%	-12%	-2%
22	COc1cc(CNc2ccc3c(c2)OCCO3)ccc1OCC(N)=O	26%[46.1 µM]	-7%	-1%	-4%	-1%[46.1 µM]	-2%	.	.
23	COCCNC(=O)CSc1nc2c(n1-c1ccccc1)CCCC2	-5%	-7%	2%	6%	?	-5%	0.9%	-3%
24	Cc1ccc(-n2c(C)cc(/C=N/NC(=O)CC3(C)OCCO3)c2C)c(C)c1	-19%	18%	-11%	-5%	-27%[46.1 µM]	-3%	-3.3%	10%
25	O=C(CNC(=O)C1CCCCC1)NNC(=O)c1ccccc1Br	1%	-18%	0%	3%	7%	1%	.	.
26	CCOC(=O)CC(N)c1ccc(OC)cc1 (stereo not given)	?	-5%	11%	3%	27%	10%	1.4%	5%
27	O=C(CN1C(=O)c2ccccc2C1=O)OCCOCCN=C1NS(=O)(=O)c2ccccc21	.	25%	0%	6%	.	-3%	.	.
28	CCOC(=O)N1CCN(CCCc2ccccc2)CC1	-9%	9%	1%	6%	-3%	8%	.	.
29	O=C(Nc1cc(F)ccc1F)c1cnn2c(C(F)F)cc(-c3ccccc3)nc12	5%[46.1 µM]	-13%	.	.	6%[46.1 µM]	.	-0.6%	17%
30	CC1CCCN(C(=O)C2CCN(c3nc(-c4ccccc4)nc4c3CCC4)CC2)C1 (stereo not given)	-24%	?	-3%	-5%	-23%	-58%	.	.
31	CC1CCN(S(=O)(=O)c2ccc(C(=O)OC(C)C(=O)N(C)C3CCCCC3)cc2)CC1 (stereo not given)	23%	-22%	-2%	2%	8%[46.1 µM]	.	.	.
32	COC(=O)COc1ccc2c(=O)c(-c3ccccc3OC)coc2c1	?	-5%	1%	17%	0%[46.1 µM]	.	.	.
33	Cc1cc(C)n(-c2cc(N3CCN(S(=O)(=O)c4ccc(C)c(C)c4)CC3)ccc2[N+](=O)[O-])n1	-4%	-29%	1%	0%	-22%	18%	1.2%	5%
34	Cc1ccc(C(=O)NCc2ccccn2)cc1Cl	.	49%[activator]	0%	-15%	.	0%	.	.
35	Cc1ccccc1S(=O)(=O)Cc1ccc(C(=O)NCCN2CCN(Cc3ccccc3)CC2)o1	6%	-30%	3%	-6%	-10%&-10%	2%	1.1%	-2%
36	Clc1ccc(-c2nc(NCCCN3CCOCC3)c3ccccc3n2)cc1	?	?	0%	-14%	?	-1%	.	.
37	CCCN1CCN(CCCNC(=O)CCN2C(=O)COc3ccccc32)CC1	10%[46.1 µM]	2%	?	-16%	?	1%	.	.
38	COc1ccc(C2CC(c3ccccc3)=NN2C(=O)c2ccc(Cl)c([N+](=O)[O-])c2)cc1 (stereo not given)	?	?	-5%	-3%	?	19%	-3.6%	10µM*
39	COc1ccc(C2NCCO2)cc1OC (stereo not given)	14%	1%	-22%	22%	-14%	-1%	3.0%	-1%
40	CCSc1nsc(NC(=O)Nc2cccc(OC)c2)n1	?	-26%	-2%	4%	11µM*	-15%	.	.
41	COC(=O)c1scc(-c2ccc(C)cc2)c1S(=O)(=O)Nc1cc(Cl)ccc1C	14%[46.1 µM]	69%[activator]	.	.	.	.	-6.7%	?
42	O=[N+]([O-])c1ccc(N2CCOCC2)cn1	-3%[46.1 µM]	2%	7%	-6%	8%[46.1 µM]	6%	.	.
43	COc1cc(OC)c2c(-c3cccc(-c4ccc(N(C)C)cc4)c3)cc(=O)oc2c1	.	-6%	-2%	7%	.	.	3.2%	32µM*
44	O=C(N/N=C/c1ccc2c(c1)OCO2)c1cc2ccccc2o1	.	-14%	0%	4%	.	7%	.	.
45	Cn1cc(/C=C/c2cc[n+](C)cc2)c2cc(Cl)ccc21	?	-16%	-3%	?	?	-5%	.	.
46	CC(C)(C)c1ccc(C(=O)NCCC(=O)NNC(=O)COc2ccccc2F)cc1	-18%	51%[activator]	-17%	11%	-16%	.	.	.
47	CCC(C)[C@H]1CNC(=S)N1CCc1cccc2ccccc12 (stereo not given in full)	.	-2%	-8%	1%	.	-1%	.	.
48	CC(C)(C)NC(=O)C(c1ccc(F)cc1)N(Cc1ccco1)C(=O)c1csnn1 (stereo not given)	-5%	-5%	-2%	0%	?	5%	-1.5%	9%
49	O=C(CCn1cnc2ccccc2c1=O)Nc1ccc(Cl)c(Cl)c1	14%	-14%	10%	-8%	-3%	4%	-7.3%	-3%
50	CCCN(C(=O)CCl)C1=CCCCC1	?	?	1%	8%	4%[46.1 µM]	.	.	.
51	CC(NC(=O)c1ccccc1)c1nnc(SCC(=O)Nc2nnc(C3CC3)s2)n1C (stereo not given)	-1%	-4%	-1%	-16%	-18%[46.1 µM]	.	.	.
52	CC12CC(NC(=O)N1c1cccc(C(=O)Nc3ncn[nH]3)c1)c1ccccc1O2 (stereo not given)	4%	-3%	.	4%	?	-3%	4.2%	-4%
53	COc1cccc(CN(C)CC(=O)Nc2cc3oc4ccccc4c3cc2OC)c1	4%	2%	.	.	?	-3%	-9.4%	-22%
54	CCOc1ccccc1CNc1nc2nc(C)cc(C)n2n1	3%[46.1 µM]	-13%	.	.	2%[46.1 µM]	.	-2.2%	-13%
55	O=C(Nc1ccc(Br)cc1)C1CCCN(S(=O)(=O)c2ccc(Br)s2)C1 (stereo not given)	2%[46.1 µM]	-7%	.	.	?	.	-2.9%	6%
56	O=C(COc1ccc2c3c(c(=O)oc2c1)CCC3)NCC(O)c1ccccc1 (stereo not given)	.	?	-2%	-8%	.	-14%	.	.
57	COc1ccc(CCC(=O)NCCOc2ccc(C)cc2)cc1	12%	-13%	1%	37%	?	-33%	.	.
58	O=[N+]([O-])c1ccccc1/C=C/C=N/n1c(-c2ccccc2F)n[nH]c1=S	-24%	33%[activator]	0%	3%	1%	11%	.	.
59	Cc1cc(C(=O)NN)n[nH]1	?	5%	0%	8%	?	1%	.	.
60	Cc1cc(C)cc(N(C(=O)Cc2cccs2)C(C(=O)NC2CCCCC2)c2ccccn2)c1 (stereo not given)	16%	25%	-3%	1%[3.69 µM]	-19%	-9%	-3.6%	4%
61	COc1cc([N+](=O)[O-])c2nc(C(=O)O)ccc2c1	1%	-14%	.	0%	7%	.	.	.
